Assay outcomes (PubChem BioAssay)
Cruzain inh Det: cruzain (T. cruzi) inhibition with detergent. P25779. purified cruzain, Z-FR-AMC fluorescence, 0.01% Triton. Potency, µM, without a hit: max response, negative = inhibition, usual class: inhibitors. 200,000 tested, 0.43% active. AID 1478; active = well fitted curve in the direction sought with a large enough effect; inconclusive = small, poorly fitted or top-dose-only effect, or another doubt; inactive = no such curve, though single readings can be large; an effect the other way counts as inactive or inconclusive;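 note: plate controls were neutral wells for no effect and buffer without enzyme for full effect; nearly all actives have a fitted effect of over 40% in size; top concentration of the series not given in the record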
Target sequence (P25779 123-467 limits assumed): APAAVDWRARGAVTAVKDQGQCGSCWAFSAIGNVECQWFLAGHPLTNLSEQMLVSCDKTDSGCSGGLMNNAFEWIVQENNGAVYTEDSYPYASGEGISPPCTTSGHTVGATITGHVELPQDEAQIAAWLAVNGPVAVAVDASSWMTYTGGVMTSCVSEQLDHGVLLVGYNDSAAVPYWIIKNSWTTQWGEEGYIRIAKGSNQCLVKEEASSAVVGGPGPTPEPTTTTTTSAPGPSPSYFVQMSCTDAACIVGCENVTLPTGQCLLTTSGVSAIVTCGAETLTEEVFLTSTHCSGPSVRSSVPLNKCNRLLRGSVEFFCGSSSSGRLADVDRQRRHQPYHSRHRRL
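Cysteine protease activity tested under reducing, mildly acidic conditions (100 mM sodium acetate pH 5.5, 5 mM DTT) plus 0.01% Triton X-100. Cruzain 1.5 nM; substrate Z-FR-AMC 2 uM; 15 min compound preincubation at room temperature.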
MARV entry inh: Marburg virus entry inhibition; Marburg virus pseudotyped entry inhibition, cell reporter; control for the full effect not named in the record; about a third of the inactives were read at about 46 µM; Potency, µM (titrated, usually from 37.8 µM), without a hit: at the top dose activity change, negative = inhibition, usual class: inhibitors; 300,000 tested, 1.8% active; AID 540276; active = well fitted inhibition curve with a large enough effect; inconclusive = small, poorly fitted or top-dose-only effect, or effect the other way; inactive = flat fitted curve, though single readings scatter; tested in HEK293 cells; about a fifth of its hits are not listed in these tables; note: % is set by controls: 0 for no effect and ±100 for the full control effect; luciferase read-out
LASV entry inh: Lassa virus entry inhibition | Potency, µM (highest dose often 37.9 µM), for the others: at the highest dose activity change, negative = inhibition, most hits filed as inhibitors | 300,000 tested, 1.2% active | Lassa virus pseudotype entry inhibition, cell reporter; control for the full effect not named in the record | AID 540256; active means well fitted inhibition curve with a large enough effect; inconclusive means small, poorly fitted or top-dose-only effect, or effect the other way; inactive means flat fitted curve, though single readings scatter; tested in HEK293 cells; note: % is set by controls: 0 for no effect and ±100 for the full control effect; nearly all actives have a fitted effect of over 50% in size; luciferase read-out
SARS PLP yeast: SARS-CoV PLP inhibition in yeast. S. cerevisiae expressing SARS-CoV PLpro, growth rescue; control for the full effect not named in the record. Potency, µM (doses to about 32.9 µM), for the others: at the highest dose activity, positive = growth rescue. 330,000 tested, 0.19% active; note: 0% is about no effect; nearly all actives have a fitted effect of over 55% in size; growth read by luminescence after 48 h
Cruzain noTriton: inhibitors of Trypanosoma cruzi cruzain without detergent; purified cruzain, Z-FR-AMC fluorescence, no detergent; Potency, µM, for inactives: max response, negative = inhibition, actives largely listed as inhibitors; 200,000 tested, 2.3% active; AID 1476; active = well fitted curve in the direction sought with a large enough effect; inconclusive = small, poorly fitted or top-dose-only effect, or another doubt; inactive = no such curve, though single readings can be large; an effect the other way counts as inactive or inconclusive;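 note: plate controls were enzyme without inhibitor for no effect and buffer without enzyme for full effect; nearly all actives have a fitted effect of over 40% in size; top concentration of the series not given in the record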
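Detergent-free condition (0.00005% Triton X-100) in acetate buffer pH 5.5 with DTT. 1.5 nM enzyme and compound were pre-mixed 15 min, then 2 uM Z-FR-AMC substrate added; reaction progress from fluorescence change between first and third reads (60 s).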
2A StopGo: lowers the luciferase signal of an FMDV 2A StopGo reporter. AID 1159524. 410,000 tested, 1.2% active. human cells with a luciferase reporter of 2A StopGo recoding; control for the full effect not named in the record. Potency, µM (doses to about 57.9 µM), inactives show at the top dose signal change, negative = less light; active = well fitted falling curve with a large enough effect; inconclusive = small, poorly fitted or top-dose-only effect; inactive = no such curve, though single readings can be large or run the other way; tested in HEK293T cells; note: % is set by controls: 0 for no effect and ±100 for the full control effect; nearly all actives have a fitted effect of over 45% in size; luciferase light after 4 h
RE007 growth inh: less growth of the S. pombe RE007 Vpr strain. AID 651644. 360,000 tested, 0.21% active. Potency, µM (top dose mostly 92.2 µM), for the others: top-dose activity change, negative = less growth. S. pombe RE007 Vpr strain, BacTiter-Glo ATP luminescence, 24 h; control for the full effect not named in the record; active = well fitted falling curve with a large enough effect; inconclusive = small, poorly fitted or top-dose-only effect; inactive = no such curve, though single readings can be large or run the other way;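 note: % is set by controls: 0 for no effect and ±100 for the full control effect; nearly all actives have a fitted effect of over 50% in size; the assay follows cell death caused by Vpr and the record does not say whether a fall means rescue or toxicity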
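Fission yeast RE007 carrying one integrated HIV-1 vpr copy, seeded at OD 0.01 in PMG+AL medium with 23 nL pinned compound. Grown 24 h at 30 degrees; viability read by BacTiter-Glo luminescence after 5 min.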
NS1 function inh: inhibitors of influenza NS1 protein function; S. cerevisiae slowed by influenza A NS1, growth recovery by OD600; Potency, µM (highest dose often 46.1 µM), inactives show at the top dose activity, positive = more growth; 270,000 tested, 0.4% active; note: actives are rising curves; nearly all actives have a fitted effect of over 50% in size
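Growth recovery, yeast-based: influenza A NS1 expressed in S. cerevisiae causes slow growth, and suppressors are detected by OD600. The parent strain without NS1 is used as positive control.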
* hit, by the source's call; u = inconclusive; x = not tested or not shown; & = joins results of further samples; [ ] = another dose, or the depositor's remark. Unless noted, calls come from the whole dose curve; as a rule, active means well fitted rising curve with a large enough effect; inconclusive means small, poorly fitted or top-dose-only effect; inactive means no such curve, though single readings can be large or run the other way. Potency is the fitted concentration of half-maximal effect.

SMILES	Cruzain inh Det	MARV entry inh	LASV entry inh	SARS PLP yeast	Cruzain noTriton	2A StopGo	RE007 growth inh	NS1 function inh
COc1cccc(NCc2cc(=O)oc3cc(C)c(C(C)C)cc23)c1	x	x	x	-3%	x	-3%	-15%	2%
O=C(Nc1cccc(C(F)(F)F)c1)C(SCCO)c1ccccc1 (configuration not stated)	-6.6%	-15%	-3%	-1%	5%	0%	-2%	11%
COc1ccc(C(=O)NC(NC(=O)c2ccc(OC)c(OC)c2)c2ccccc2F)cc1OC	-1.9%	-1%[46.1 µM]	0%&-1%	-8%	-6%	3%	-1%	8%
Cc1cc(NC(=O)c2ccc(Cl)cc2)c(C)cc1O	x	u	-1%[46.1 µM]	-2%	x	35%[activator]	7%	-2%
CCCS(=O)(=O)N1CCC(C(=O)NCc2ccco2)CC1	0.1%	17%	-14%	2%	1%	5%	10%	1%
CN(C(=O)c1cnccn1)c1c(N)n(Cc2ccccc2)c(=O)[nH]c1=O	x	0%	-12%	3%	x	-19%	-24%	x
COc1ccc(S(=O)(=O)NNC(=S)NCCc2ccccc2)c(OC)c1	x	-8%	1%	26%	x	14%	-9%	-2%
CCCCCNC(=O)CCn1c(=O)oc2ccccc21	0.0%	29%[46.1 µM]	-11%	2%	5%	22%	-1%	-2%
CCCN1C(=O)C2(c3ccccc31)c1c(oc3ccc(F)cc3c1=O)C(=O)N2CCCOC(C)C (configuration not stated)	-5.8%	15%[46.1 µM]	1%[46.1 µM]	x	u	2%	x	x
CN(Cc1cccc(F)c1)C(=O)CSc1nnc(C2CC2)n1C1CC1	x	u	u	2%	x	1%	8%	x
COc1ccc(OC)c(NC(=S)NC(=O)c2ccc(Br)o2)c1	x	x	x	u	x	-7%	-6%	2%
CC(=O)Nc1nnc(Cc2ccccc2)s1	0.6%	27%	-17%	-1%	-4%	-13%	8%	2%
CCOC(=O)c1ccc(S(=O)(=O)Nc2ccccc2-c2nnn(CC)n2)cc1	-4.6%	u	4%	-1%	11%	u	11%	-16%
O=C(N/N=C/c1cccnc1)c1sc2ccccc2c1Cl	x	13%[46.1 µM]	16%[46.1 µM]	-12%	x	26%	-21%	-37%
COCc1c(C(=O)Nc2ccc(C)c(S(=O)(=O)N3CCOCC3)c2)oc2ccccc12	x	u	-28%	x	x	-21%	29%	x

Gathered by group, the compounds so far with a Cl atom.
SMILES	Cruzain inh Det	MARV entry inh	LASV entry inh	SARS PLP yeast	Cruzain noTriton	2A StopGo	RE007 growth inh	NS1 function inh
Cc1cc(NC(=O)c2ccc(Cl)cc2)c(C)cc1O	x	u	-1%[46.1 µM]	-2%	x	35%[activator]	7%	-2%
O=C(N/N=C/c1cccnc1)c1sc2ccccc2c1Cl	x	13%[46.1 µM]	16%[46.1 µM]	-12%	x	26%	-21%	-37%

Following part:
SMILES	Cruzain inh Det	MARV entry inh	LASV entry inh	SARS PLP yeast	Cruzain noTriton	2A StopGo	RE007 growth inh	NS1 function inh
CC(C)n1nnnc1SCC(=O)N1CCN(C(=O)c2ccco2)CC1	6.7%	1%	0%	-1%	-10%	-15%	-7%	-20%
N=C1C(c2nc3ccccc3s2)=C(O)CN1CCCO	-4.6%	-1%	u	5%	0%	7%	10%	-9%
CCCCN1C(=O)N(c2nnc(C(C)(C)C)s2)C(O)C1c1ccc(C)cc1 (configuration not stated)	x	x	x	-2%	x	15%	4%	-2%
Cc1cc(NC(=O)/C(C#N)=C/c2ccc(-c3cccc(C(F)(F)F)c3)o2)n(-c2ccccc2)n1	-6.4%	u	-11%	14%	u	-24%	5%	9%
COc1ccc(C)cc1NC(=O)c1cc(S(=O)(=O)N2CCN(c3cccc(C)c3C)CC2)ccc1F	0.2%	x	u	x	-9%	-21%	x	x
O=C1/C(=C/c2ccc(O)c(O)c2)Oc2cc(O)ccc21	x	x	x	1%	x	55%[activator]	9%	-5%
C=C(CN(C)C)C(=O)c1ccc(C)cc1C	x	u	u	x	x	-6%	-27%	x
CC(C)NC(=O)Cn1cc(S(=O)(=O)N2CCCC2)c(S(=O)(=O)N2CCCC2)c1	x	-3%[46.1 µM]	u	1%	x	-10%	9%	2%
CCC(=O)N1CCc2cc(Br)cc(S(=O)(=O)CCC(=O)N3CCN(c4cc(C)ccc4C)CC3)c21	0.0%	u	-1%[46.1 µM]	x	11%	-3%	x	x
Cc1nnc(SCCn2c(N3CCN(C)CC3)nc3c2c(=O)n(C)c(=O)n3C)s1	2.1%	3%	0%	0%	-8%	11%	0%	3%
CC1CCN(C(=O)CSC2=NS(=O)(=O)c3cc(F)ccc3N2)CC1	x	26%[46.1 µM]	24%	9%	x	-15%	-4%	x
O=C(Cn1cnc2c(oc3ccccc32)c1=O)NCc1ccco1	1.0%	16%	13%	2%	2%	x	6%	-1%
CC(=O)N1CCOc2cc(S(=O)(=O)NC(C)c3ccccc3)c(Cl)cc21 (configuration not stated)	-2.1%	x	u	-3%	7%	20%&25%	6%	18%
CC(=O)NC(Cc1ccc(F)c(F)c1)C(=O)NC1CCN(C(=O)c2ccc(Cl)cc2)CC1 (configuration not stated)	x	25%[46.1 µM]	x	4%	x	4%	14%	-2%
CCOC(=O)c1c(NC(=O)c2cc3nc(-c4ccc(OC)cc4)cc(C(F)(F)F)n3n2)sc2c1CCC(C)C2 (configuration not stated)	3.3%	x	-1%[46.1 µM]	x	-4%	-2%	x	x
O=C(N1CCCCCC1)N1CC1	x	-2%	u	x	x	5%	-3%	x
CC(OC(=O)c1cccc(-n2cnnn2)c1)C(=O)N(C)c1ccccc1 (configuration not stated)	x	-6%[46.1 µM]	u	-3%	x	12%	10%	0%
CCOC(=O)Cn1c(=NC(=O)c2cc(-c3cccs3)nc3ccccc23)sc2cc(S(N)(=O)=O)ccc21	-4.0%	9%	7%	-8%	4%	-1%	6%	30%
O=C(COc1ccccc1Cl)Nc1cc(Cl)ccc1O	x	x	x	-1%	x	41%[activator]	7%	2%
Cc1ccc2cc(C3CC(c4ccco4)=NN3C(=O)CCCC(=O)O)c(Cl)nc2c1 (configuration not stated)	x	x	x	0%	x	-7%	-16%	-3%
Cc1ccccc1CSc1nc2ccsc2c(=O)n1CCC(C)C	2.2%	x	28%[46.1 µM]	x	3%	20%	x	x
CC1CCCCC12NC(=O)N(CC(=O)c1ccc[nH]1)C2=O (configuration not stated)	-4.1%	-3%[46.1 µM]	1%	-3%	-6%	3%	13%	4%
Cc1ccccc1Cc1c(C)nc2c(C(=O)N3CCN(Cc4ccc5c(c4)OCO5)CC3)cnn2c1C	x	-4%&-15%	-5%	x	x	u	-12%	-19%
O=C(/C=C/c1ccccc1)NC(=S)N1CCSCC1	x	1%[46.1 µM]	-10%	0%	x	50%[activator]	-10%	1%
O=c1[nH]c(Cc2ccc(F)cc2)nc2scc(-c3ccc(F)cc3)c12	-12%	u	-7%	u	u	1%	8%	7%
CCOC(=O)c1[nH]c2ccc(OC)cc2c1NC(=S)N1CCN(c2ccccc2)CC1	-4.0%	15%	-2%	-7%	u	u	-18%	17%
Cc1cccc(-c2nnc3n2N=C(c2ccccc2Br)CS3)c1	-6.7%	u	u	-7%	u	u	9%	u
CCCC(=O)Nc1nc2ccc(S(=O)(=O)N3CCCCC3)cc2s1	-6.9%	x	x	12%	-12%	11%	8%	6%
CCOc1ccc(CNC(=O)Cn2c(=O)c3cccn3c3ccc(F)cc32)cc1	-1.5%	x	-1%[46.1 µM]	x	-5%	-13%	x	x
Cc1ccc(OCCC(=O)OCC(=O)NC(=O)NCc2ccccc2)cc1	x	24%	-5%	-8%	x	-14%	7%	x

Overlap with the part before: 4 compounds, then new ones.
SMILES	Cruzain inh Det	MARV entry inh	LASV entry inh	SARS PLP yeast	Cruzain noTriton	2A StopGo	RE007 growth inh	NS1 function inh
Cc1cccc(-c2nnc3n2N=C(c2ccccc2Br)CS3)c1	-6.7%	u	u	-7%	u	u	9%	u
CCCC(=O)Nc1nc2ccc(S(=O)(=O)N3CCCCC3)cc2s1	-6.9%	x	x	12%	-12%	11%	8%	6%
CCOc1ccc(CNC(=O)Cn2c(=O)c3cccn3c3ccc(F)cc32)cc1	-1.5%	x	-1%[46.1 µM]	x	-5%	-13%	x	x
Cc1ccc(OCCC(=O)OCC(=O)NC(=O)NCc2ccccc2)cc1	x	24%	-5%	-8%	x	-14%	7%	x
Cc1cc(NC(=O)COC(=O)c2ccco2)no1	x	10%[46.1 µM]	2%	-1%	x	4%	16%	2%
Cc1nnc(SCC(=O)NCC2CCCCC2)n(N)c1=O	-0.6%	-4%	2%	6%	1%	0%	10%	10%
O=C(COC(=O)CN1C(=O)c2ccccc2C1=O)NC1CCCC1	x	u	9%	-2%	x	-5%	-5%	-22%
COc1ccc(-c2nc3scc(CCNS(=O)(=O)c4ccc(F)c(C(F)(F)F)c4)n3n2)cc1OC	-10%	x	-20%[46.1 µM]	x	u	3%	x	x
COc1cccc(NC(=O)COC(=O)c2cc(S(=O)(=O)N3CCOCC3)ccc2C)c1	1.4%	18µM*	-18%	-4%	22%	-9%	6%	-8%
O=C1CC(NS(=O)(=O)c2ccc([N+](=O)[O-])cc2)CN1c1cccc(F)c1 (configuration not stated)	x	u	7%	1%	x	-24%	1%	x
CCCNC(=O)Nc1cccc(NC(C)=O)c1	x	26%[46.1 µM]	-9%[46.1 µM]	0%	x	5%	-20%	4%
Cc1ccc(S(=O)(=O)N2CCN(C(=O)CCn3cncn3)CC2)cc1	x	x	x	2%	x	17%	5%	20%
CCOc1c(Cl)cc(/C=N/O)cc1OC	-0.9%	-8%	1%	1%	5%	-5%	-8%	8%
COc1ccccc1OCc1ccc(C(=O)NCC(C)C)o1	x	u	u	0%	x	-3%	5%	x
O=C(c1cc2c(s1)CCCC2)N1CCN(Cc2ccc3c(c2)OCO3)CC1	-0.3%	u	-17%	-12%	9%	u	-8%	-42%
O=C(O)CCCC(=O)NNC(=O)c1cccc(Br)c1	x	2%[46.1 µM]	0%[46.1 µM]	0%	x	14%	-9%	4%

Rows are unselected; overall some 4.7% were active at least once.
